High-throughput results: PubChem, several laboratories
Beta apoptosis: inhibitors of cytokine-induced beta cell apoptosis, primary screen, luminescence; INS-1E cytokine-induced death, ATP luminescence, 48 h; percent of positive-control rescue, neutral wells zero; protection from apoptosis, % (test concentration not listed); 300,000 tested, 0.8% active; AID 435005, 2010;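 active = all replicates at 75% or more, or half of them and the mean; inconclusive = half reach 75% but not the mean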;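 also: 0% = cytokine-treated negative control wells and 100% = positive control rescue; higher means more ATP so stronger rescue from cytokine killing; wells of about 40 µL received 100 nL stock; the first replicate is given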
rRNA inh HTS: reduced GFP signal of wild-type E. coli, primary screen, bacterial rRNA inhibitor project, GFP/RFP fluorescence, OD600, single point; GFP signal change (wild-type ribosome), % (concentration not given with the values); 350,000 tested, 1.6% active; AID 720706, 2013; E. coli WT GFP vs humanized-ribosome RFP mutants, 24 h; active compounds read low; DMSO median 0, no signal -100;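 active = significant combined selectivity score with lowered wild-type GFP, culture density cut under 30%, mutant RFP and density less affected; inactive = any of these conditions unmet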; also: one replicate is shown; some compounds called inactive have numbers as strong as hits
RanGTP-Imp inh: inhibitors of RanGTP-importin-beta interaction, primary screen, biochemical, FRET, CFP-Ran, YFP-importin-beta, homogeneous | cell-free CFP-Ran/YFP-importin-beta FRET ratio | inhibition, % (no concentration beside the values) | 300,000 tested, 1.1% active | AID 2216, 2009 | Ran GTPase (GTP-bound) - importin-beta complex;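 active = most replicates above 15%; inconclusive = exactly half above 15%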;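 also: 0% = DMSO wells and 100% = Ran loaded with GDP instead of GTP; wells of about 40 µL received 100 nL stock; the first replicate is given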
MLL AF4-AF9 inh: inhibitors of AF4 peptide binding to AF9, primary screen, biochemical, AlphaScreen, biotin-AF4 peptide, FLAG-AF9, single point; Protein AF-9 (Homo sapiens), P42568; inhibition, % at 10 µM; 350,000 tested, 0.47% active; AID 651704, 2012;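 active = every replicate reaching a set inhibition limit, whatever the replicate mean, cut at about 25% in these data; inconclusive = mean inhibition reaches that limit but some replicates miss it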;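 also: 0% = plate neutral control median and 100% = total signal loss; the record names both 10 and 1 µM as test concentration; the first replicate is given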
Target sequence (P42568 whole entry, looked up): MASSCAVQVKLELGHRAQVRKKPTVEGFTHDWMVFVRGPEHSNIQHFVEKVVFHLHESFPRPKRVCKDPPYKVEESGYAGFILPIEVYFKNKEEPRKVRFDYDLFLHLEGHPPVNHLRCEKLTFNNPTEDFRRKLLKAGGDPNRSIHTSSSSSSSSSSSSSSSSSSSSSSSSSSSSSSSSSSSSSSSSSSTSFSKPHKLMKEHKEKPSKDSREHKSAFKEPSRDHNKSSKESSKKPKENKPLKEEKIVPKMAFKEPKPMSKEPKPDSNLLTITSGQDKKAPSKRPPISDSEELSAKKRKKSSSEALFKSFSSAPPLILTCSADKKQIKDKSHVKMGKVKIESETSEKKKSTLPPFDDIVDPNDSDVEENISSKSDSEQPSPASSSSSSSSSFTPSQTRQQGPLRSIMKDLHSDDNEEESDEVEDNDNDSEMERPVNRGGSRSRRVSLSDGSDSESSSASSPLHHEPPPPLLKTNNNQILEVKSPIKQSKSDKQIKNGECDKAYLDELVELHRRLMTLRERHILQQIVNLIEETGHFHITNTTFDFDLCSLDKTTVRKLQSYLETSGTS
T cruzi repl: inhibitors of intracellular T. cruzi growth, primary screen, luminescence, NIH3T3 host cells; T. cruzi beta-gal in NIH3T3, 90 h; inhibition, % (concentration not given with the values); 300,000 tested, 1.4% active; AID 1885, 2009;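 active = mean inhibition across valid replicates above about 55%, limit read from the data; inconclusive = mean below that limit but half or more replicates reach it; inactive = mean below it, under half of replicates reach it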;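 also: signal also drops with host cell toxicity which is not excluded here; 0% = plate median of DMSO wells and 100% = zero luminescence signal; higher percent means less beta-gal luminescence so fewer parasites; stock transfer was 50 nL into about 50 µL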
Calb FLC: C. albicans growth inhibition with fluconazole, primary screen, CaCi-2 strain, Alamar Blue fluorescence | AID 1979, 2009 | C. albicans CaCi-2 (fluconazole-resistant clinical isolate) + fluconazole, 48 h | growth inhibition, % (no concentration beside the values) | 300,000 tested, 0.57% active;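 active = most replicates above 75%; inconclusive = exactly half above 75%; inactive = most below 75%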;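 also: all wells also contain fluconazole at 8 µg/ml as a sub-toxic cotreatment; 0% = median of DMSO wells and 100% = median of geldanamycin control wells; wells of about 8 µL received 7.5 nL stock; the first replicate is given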
Vif TR-FRET: inhibitors of Vif binding to APOBEC3G peptide, primary screen, biochemical, TR-FRET, GST-Vif 1-94, biotin-A3G peptide, dose response retest (AID 1117319); Virion infectivity factor (Human immunodeficiency virus type 1 group M subtype B (isolate …; TR-FRET GST-Vif / biotin-A3G peptide binding; higher % means a stronger effect; test concentration not given here; strong numbers were not always called active; one-dose inhibition, %; IC50 in µM for titrated hits; 260,000 tested, 0.57% active;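 active = above the screen mean plus three standard deviations and confirmed in dose response; inconclusive = results disagree or hit not tested in dose response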;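 also: Vif residues 1-94 fused to GST binding biotinylated APOBEC3G peptide 110-148; 0% = full assay without inhibitor and 100% = GST in place of GST-Vif; retest series ran down from 100 µM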
Bfl-1 A1 inh: caspase 3/7 activation in MEF A1-2A-BIM cells, primary screen, A1 inhibitor project, cell-based, luminescence, HTS; 330,000 tested, 0.066% active; Caspase-Glo 3/7 luminescence, 3 h; percent of clofoctol response, vehicle zero; caspase activation, % (no concentration beside the values);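 active = over half of replicate activation scores above 10%, or exactly half above 10 with the replicate mean above 10; inconclusive = replicate mean below 10 yet half the replicates above 10; inactive = over half of replicates below 10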;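 also: wells of about 30 µL received 50 nL stock; many hits fall short of the cut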
rRNA inh HTS OD600: also measured in rRNA inh HTS; calls as there; OD600 change, %; measured here: OD600 growth;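 optical density of the mix in the first replicate; 0 = DMSO median and -100 = no signal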
rRNA inh HTS RFP: second read-out of rRNA inh HTS, no call of its own (marks repeat the call); RFP signal change, %; measured here: RFP humanized mutant strains;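 first replicate; 0 = DMSO median and -100 = no signal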
Numbers without * were called inactive; ? = inconclusive; . = no result given. An excerpt. The share of hits here may be higher or lower than overall.

Values run as follows: Beta apoptosis, rRNA inh HTS, rRNA inh HTS OD600, rRNA inh HTS RFP, RanGTP-Imp inh, MLL AF4-AF9 inh, T cruzi repl, Calb FLC, Vif TR-FRET, Bfl-1 A1 inh
COc1ccc(N2C(=O)N3[C@H](c4ccc(Br)cc4)[C@@H]4C(=O)N(C(C)(C)C)C(=O)[C@@H]4[C@]3(Cc3ccccc3)C2=O)cc1
→ -1, 13, -4, -4.6, 26*, 2.1, 15, 21, ., 0.0
Cc1ccc(S(=O)(=O)N2CCN(C(=O)c3ccc4nc[nH]c4c3)CC2)cc1
→ -9, 3, 6, -0.9, -7.9, 4.3, -4, 1, 7%, 0.0
CCOC(=O)Nc1ccc2c(c1)N(C(=O)CCN1CCN(CCO)CC1)c1ccccc1S2
→ 0, ., ., ., 1.1, ., ?, -6, 2%, -0.4
COc1ccccc1N1CCN(C(=O)CCn2c(=O)[nH]c3ccccc3c2=O)CC1
→ 1, ., ., ., 0.6, ., 7, -6, -2%, -1.2
O=C(c1ccc(C(=O)N2CCN(c3ccccc3F)CC2)nc1)N1CCN(c2ccccc2F)CC1
→ ., 7, 11, 1.8, -1.9, -0.2, 19, 95*, -7%, .
COc1ccc(CCNC(=O)c2cc(=O)[nH]c3ccc(Br)cc23)cc1OC
→ 2, 10, 5, 0.5, 6.6, 0.0, 10, -13, ., -0.1
COc1ccc(NC(=O)Nc2ccon2)c(OC)c1
→ -3, 8, 9, 0.1, 4.0, -1.7, 7, 5, ?, -0.7
CC1=NOC(=O)/C1=C\c1ccc(-c2ccccc2Br)o1
→ ., ., ., ., 0.4, -1.0, 21, -1, -94%, .
Cc1nn(C)c(C)c1C1C(C#N)=C(N)OC2=C1C(=O)CCC2 (stereo unspecified)
→ 0, 6, 3, -4.7, 2.6, -1.1, -4, 5, -3%, 0.7
COc1ccc(NC(=O)c2ccc(NC3=NC4CS(=O)(=O)CC4S3)cc2)cc1 (stereo unspecified)
→ 8, 4, 14, -7.5, 4.6, 1.0, -1, -9, ., -0.3
O=C(NCCc1ccc(Cl)cc1)C(=O)Nc1cc2c3c(c1)CC(=O)N3CCC2
→ -2, 10, 17, -1.8, -1.8, 5.4, 1, 5, ., 0.6
Cn1c(OCc2ccc3c(c2)OCO3)nc2c1c(=O)n(Cc1ccc(Cl)c(Cl)c1)c(=O)n2C
→ -2, ., ., ., 3.1, ., 1, -3, 25%, 0.0
COc1cccc(CN2CCNC(=O)C2CC(=O)N(C)CC2CCOCC2)c1 (stereo unspecified)
→ 0, 9, 10, 0.6, 2.7, 0.4, -12, 9, ., 0.5
COC(=O)CSc1nc(N2CCCCC2)c2c(c1C#N)CCCC2
→ 1, ., ., ., 3.4, ., -12, 4, -1%, 0.8
COc1cccc(NC2=NC3(CCCCC3)N=C(N)N2)c1
→ -6, ., ., ., 5.6, ., -5, 11, 5%, 0.4
COc1ccccc1NS(=O)(=O)c1cccc(C(=O)N/N=C/c2ccccc2OCC(=O)O)c1
→ -4, 5, 9, -0.9, -1.6, 0.4, -11, 42, 1%, 1.7
Cc1cccc(NC(=S)N(CCc2nc3cc(C)c(C)cc3[nH]2)Cc2cccnc2)c1
→ ., ., ., ., ?, ., 79*, 5, 1%, -0.1
Cc1cccc(-c2nnc(SCC(=O)Nc3cc(C)on3)n2C)c1
→ 1, 1, 5, -0.4, 1.9, 0.5, -4, 5, ., -0.1
CCc1ccccc1NC(=O)CCS(=O)(=O)c1ccc2c(c1)CCCN2C(C)=O
→ 5, 7, 10, -0.8, 6.1, -1.3, -7, 1, -6%, -0.1
Cc1ccc(-c2cc(C(F)F)nc3sc4c(=O)[nH]cnc4c23)cc1
→ 14, 10, 9, 5.3, ., 0.0, ., ., ., -0.2
CCOP(=O)(OCC)C(NC(=O)Nc1ccc(Cl)cc1)C(N)=O (stereo unspecified)
→ 6, ., ., ., 9.1, ., -9, 7, 9%, -1.2
COc1ccccc1/C=N/NC(=O)Cn1cnc([N+](=O)[O-])n1
→ -5, -5, 6, -2.8, 7.3, -2.4, -13, -7, 6%, 0.4
CCOc1cc2[nH]c(=O)n(CCc3ccc(OC)c(OC)c3)c(=O)c2cc1OCC
→ 2, ., ., ., 2.1, ., -19, ?, -2%, -0.4
Cc1ccc(C2(C)NC(=O)N(CC(=O)Nc3ccc4[nH]c(=O)[nH]c4c3)C2=O)cc1 (stereo unspecified)
→ -7, 5, 1, 0.1, 0.3, -1.1, -39, 1, ?, -0.8
CCOc1ccc(CN2CCN(Cc3nc4c(s3)CCCC4)CC2CCO)cc1 (stereo unspecified)
→ 9, 11, 10, 2.0, -2.3, 1.0, 57*, -18, 8%, 0.8
Cc1cccc(C(=O)NC(=S)NNC(=O)COc2ccc(Cl)cc2)c1
→ ., -56, -80, -19, 2.2, -2.8, -5, ?, -9%, .
CCOC(=O)C1=C(C)Nc2ncnn2C1c1cc(Br)ccc1F (stereo unspecified)
→ -3, ., ., ., 4.7, ., 2, 4, 7%, -1.6
O=C(NCCCN1CCCC1=O)c1ccc2c(c1)NC(=O)C(N1CCOCC1)S2 (stereo unspecified)
→ ., ., ., ., 4.6, ., 2, -4, 7%, .
O=C(NCC1CCCN(C(=O)c2cccnc2)C1)c1ccc(-c2ccccc2)cc1 (stereo unspecified)
→ -1, -12, -10, -4.3, 1.1, -0.9, 2, -21, ., -0.7
COCCNC(=O)/C(C#N)=C/c1ccc(SC)cc1
→ 1, 2, 3, 1.9, -2.0, 2.0, -6, -7, -3%, -0.8
O=C(Cn1cc(F)c(=O)[nH]c1=O)NCCO
→ -5, 6, -3, 1.7, -5.3, 0.1, -1, 2, 7%, 1.2
O=C(Nc1cnccn1)c1cccc(C(F)(F)F)c1
→ -8, ., ., ., 0.3, ., 5, 3, 10%, -0.5
Cn1cnc(C(=O)N2CCN(C(=O)OC(C)(C)C)CC2)c1C(=O)N1CCN(C(=O)OC(C)(C)C)CC1
→ -1, -1, 13, 14, ., -6.5, ., ., ., -0.1
CCOC(=O)c1cc2c(ccn2C)n1Cc1ccccc1C
→ 27, -14, 5, -3.6, 4.3, -13, 17, 9, 32%, 0.0
O=C(CNC(=O)c1ccccc1)N/N=C/c1ccc([N+](=O)[O-])o1
→ 19, 22, 2, 6.8, 2.0, -0.9, 59*, -3, 19%, -0.5
CCOc1ccc(/C=N/NC(=O)c2cc(-c3ccccc3)nc3ccccc23)cc1O
→ 1, 14, -1, -0.6, 3.4, -2.7, 2, -3, -15%, 1.0
COc1ccc(NC(=O)c2ccc3c(SCC(=O)O)c4c(nc3c2)CCCC4)cc1Cl
→ -7, 3, 14, 9.2, 2.4, -2.8, 12, -6, ., -0.5
Brc1cc2c(cc1Br)OCCOCCOCCOCCO2
→ -3, -2, -24, -3.0, 0.5, 1.0, 3, -8, 33%, 0.6
CC(OC(=O)CCc1nc2ccccc2c(=O)[nH]1)C(=O)c1ccc(Br)cc1 (stereo unspecified)
→ ., -24*, -11*, 2.2*, 8.6, 7.2, -14, -7, 30%, 1.5
c1ccc(Nc2cc(-c3ccccc3)nc3ncnn23)cc1
→ -1, 5, 27, 0.8, -2.8, 2.3, 10, -7, 0%, 0.4
CSc1ccccc1NC(=O)CN(C)C(C)C(=O)NC(=O)NC1CCCCC1 (stereo unspecified)
→ -1, -5, -6, 0.4, -0.6, 0.8, 10, -5, 4%, -0.4
Cc1cccc(N2C(=O)CN(Cc3cccs3)C2=S)c1
→ -13, -4, 0, 1.5, ?, -2.2, -3, -4, ., 0.0
CC(O)Cn1nc([N+](=O)[O-])nc1N (stereo unspecified)
→ 2, 6, -1, -3.3, 2.5, -15, 17, -1, ., 0.0
COc1ccc(NC(=O)C(C)Sc2nnc3c4c(nc(-c5ccc(OC)cc5)n23)CC(C)(C)OC4)cc1 (stereo unspecified)
→ -5, ., ., ., ?, ., 14, 15, 10%, 0.2
Cc1cccc(N2CCN(CC(=O)Nc3ccc(S(=O)(=O)N4CCOCC4)cc3)CC2)c1C
→ 49, 7, -24, 4.2, 1.4, 2.1, 20, 2, -6%, -1.8
COc1ccccc1C(=O)Nc1sc(C(=O)N2CCCC2)c(C)c1C#N
→ -9, 6, 12, -0.9, ?, 0.2, 31, -12, -3%, -0.6
COc1ccc(OC)c(NC(=O)C2CCN(S(=O)(=O)c3c(C)noc3C)CC2)c1
→ 1, ., ., ., -2.5, ., -5, ., 30%, 0.0
O=C(c1ccco1)N1CCN(C(=O)c2nn3cccnc3c2Cl)CC1
→ 2, ., ., ., 7.2, ., -6, 5, -3%, 0.3
COCCNC(=O)CSc1nc2cc(OC)c(OC)cc2c(=O)n1Cc1ccco1
→ 0, ., ., ., 8.7, ., 2, 12, 1%, 0.8
Cc1cc(NC(=O)C(C)N2C(=O)c3ccccc3S2(=O)=O)no1 (stereo unspecified)
→ -2, 3, 8, -2.5, 3.4, -47, -4, -2, -11%, 0.3
COc1ccc(C2CC(c3cccs3)=NN2S(=O)(=O)c2ccc(C)cc2)cc1 (stereo unspecified)
→ 3, ., ., ., 7.5, ., 14, 1, 1%, ?
O=S(=O)(c1c(Cl)sc(Cl)c1Br)N1CCCC1
→ -2, ., ., ., -0.9, -2.1, -2, 4, 0%, 1.1
O=C(Nc1nc2nccc(-c3ccccc3)n2n1)c1ccc(F)cc1
→ ., ., ., ., ?, ., -9, -1, 3%, 1.8
CCOc1ccc(/C(O)=C2/C(=O)C(=O)N(CC3CCCO3)C2c2ccco2)cc1 (stereo unspecified)
→ 7, ., ., ., -4.1, ., -5, -7, 19%, -0.2
COc1ccc([N+](=O)[O-])cc1N(CC(=O)Nc1ccccc1C(=O)N1CCOCC1)S(C)(=O)=O
→ -1, 6, 11, -0.5, 6.4, 1.5, -10, 0, ., -1.0
CCOC(=O)C(Cc1ccccc1)NS(=O)(=O)c1ccc(NC(C)=O)cc1 (stereo unspecified)
→ -2, ., ., ., -2.9, ., -4, 5, -8%, 0.7
Cc1ccc(OCC(=O)O/N=C(\N)Cc2ccc(Cl)cc2)cc1
→ -6, ., ., ., 0.8, ., 4, -2, -9%, -0.3
Cc1ccc(-c2c(NC(=O)C(C)C)n(C)c3ccccc3c2=O)cc1
→ 0, 20, 22, 0.4, 1.4, -0.1, -8, -8, -3%, -0.2
Cc1ccccc1N=C(NO)c1nonc1N
→ -9, -29*, -13*, -7.8*, 5.0, 0.7, -14, -22, ., -0.1
